# Source: PubChem BioAssay (several laboratories)
# Ecoli growth: E. coli growth inhibition, primary screen, OD600 | Escherichia coli growth, 23 h; hits give low values | OD600 absorbance (no concentration beside the values) | 0.21% of 330,000 active | AID 1053175, 2014;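 active = OD600 absorbance below the run mean of sample wells minus 3.6 SD, in any replicate, cut at about 0.56 in these data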;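 note: stock transfer was 300 nL into about 60 µL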
# LANA-H2B inh: blockers of LANA interaction with H2A/H2B – biochemical, FP readout, HTS, primary screen | cell-free LANA-H2A/H2B peptide, fluorescence polarization | inhibition, % (test concentration not listed) | 0.6% of 320,000 active; in the data active = inhibition mostly above about 10%, no sharp cut-off; inactive = mostly below about 6.7%;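 note: stock transfer was 7.5 nL into about 10 µL; 0% = median of vehicle wells and 100% = median of positive control wells; one replicate is shown; the record names a cut of 25% in any replicate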
# HNF4A DNA FP: change in binding of human HNF4A to DNA, primary screen, biochemical, fluorescence polarization, FITC-DNA | 0.3% of 360,000 active | Hepatocyte nuclear factor 4-alpha (Homo sapiens), P41235 | 1 h | activity change, % at 10 µM | AID 1224865, 2016; in the data active = activity change above about 30%, passing the limit was not always enough;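 note: controls were the assay level and a saturating level of protein; the project sought stronger binding though the title names inhibitors; some compounds called inactive have numbers as strong as hits; positive values seem to mean higher polarization but the record does not say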
# A1 inh: caspase 3/7 activation in MEF A1-2A-BIM cells, primary screen, A1 inhibitor project, cell-based, luminescence, HTS; Caspase-Glo 3/7 luminescence, 3 h; percent of clofoctol response, vehicle zero; caspase activation, % (test concentration not listed); 0.066% of 330,000 active;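 active = over half of replicate activation scores above 10%, or exactly half above 10 with the replicate mean above 10; inconclusive = replicate mean below 10 yet half the replicates above 10; inactive = over half of replicates below 10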;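 note: wells of about 30 µL received 50 nL stock; many hits fall short of the cut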
# Beta2AR agonist: beta2AR agonists driving receptor internalization, primary screen, cell-based, FAP fluorogen, flow cytometry | Beta-2 adrenergic receptor (Homo sapiens), P07550 | 0.43% of 340,000 active | response, % (test concentration not listed) | AID 504454, 2011 | Am2.2-beta2AR cells; reference of the scale not given here;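 active = response above a set limit, near 3 SD of response in nonfluorescent compounds, cut at about 42% in these data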;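 note: stock transfer was 100 nL into about 11 µL; a reference agonist was the positive control; negative values mostly stem from fluorescent compounds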
# Target sequence (P07550 whole entry, looked up): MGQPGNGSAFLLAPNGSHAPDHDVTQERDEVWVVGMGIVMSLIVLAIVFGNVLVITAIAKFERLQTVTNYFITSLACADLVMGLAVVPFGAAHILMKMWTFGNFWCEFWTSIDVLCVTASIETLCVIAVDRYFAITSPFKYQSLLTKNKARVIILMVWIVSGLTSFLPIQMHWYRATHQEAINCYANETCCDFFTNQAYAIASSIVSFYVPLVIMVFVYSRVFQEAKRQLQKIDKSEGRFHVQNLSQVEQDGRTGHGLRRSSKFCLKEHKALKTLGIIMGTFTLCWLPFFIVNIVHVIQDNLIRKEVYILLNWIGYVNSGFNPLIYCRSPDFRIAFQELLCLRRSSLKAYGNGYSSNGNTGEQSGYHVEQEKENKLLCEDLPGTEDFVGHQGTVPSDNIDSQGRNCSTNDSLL
# UCH37 DUB inh: inhibitors of human UCH37 deubiquitinase, primary screen, biochemical, Ub-AMC cleavage, fluorescence; Ubiquitin carboxyl-terminal hydrolase isozyme L5 (Homo sapiens), Q9Y5K5; purified proteasome/UCH37; inhibition, % (concentration not given with the values); 0.33% of 330,000 active; AID 588478, 2011;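 active = mean of two replicates above 20%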;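 note: 0% = compound-free wells with enzyme and 100% = wells lacking proteasome; stock transfer was 100 nL into about 20 µL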
# Target sequence (Q9Y5K5 whole entry, looked up): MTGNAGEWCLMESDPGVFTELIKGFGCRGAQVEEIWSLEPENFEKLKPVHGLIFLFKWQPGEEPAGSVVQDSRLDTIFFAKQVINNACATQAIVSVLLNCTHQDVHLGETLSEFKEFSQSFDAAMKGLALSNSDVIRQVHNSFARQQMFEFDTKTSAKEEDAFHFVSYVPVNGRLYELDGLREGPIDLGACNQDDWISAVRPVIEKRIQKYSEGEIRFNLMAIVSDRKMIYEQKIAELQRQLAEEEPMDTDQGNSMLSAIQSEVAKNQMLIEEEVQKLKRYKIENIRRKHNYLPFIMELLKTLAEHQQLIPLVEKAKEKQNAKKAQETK
#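 Material: human UCH37 enzyme supplied as purified proteasome complex. Measure: % inhibition of Ub-AMC cleavage fluorescence. Medium: pH 7.4 Tris-HCl (50 mM) with ovalbumin, ATP-MgCl2, DTT. Times: 30 min preincubation with enzyme, 25 min cleavage at room temperature. Detection: AMC fluorescence intensity at 355/460 nm.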
# Vif TR-FRET: inhibitors of Vif binding to APOBEC3G peptide, primary screen, biochemical, TR-FRET, GST-Vif 1-94, biotin-A3G peptide, dose response retest (AID 1117319); Virion infectivity factor (Human immunodeficiency virus type 1 group M subtype B (isolate …; TR-FRET GST-Vif / biotin-A3G peptide binding; higher % means a stronger effect; test concentration not given here; strong numbers were not always called active; inhibition, %, or IC50 in µM where a hit was titrated; 0.57% of 260,000 active;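 active = above the screen mean plus three standard deviations and confirmed in dose response; inconclusive = results disagree or hit not tested in dose response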;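 note: Vif residues 1-94 fused to GST binding biotinylated APOBEC3G peptide 110-148; 0% = full assay without inhibitor and 100% = GST in place of GST-Vif; retest series ran down from 100 µM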
# Starred values were filed as active, the others as inactive; i = inactive; u = inconclusive; x = no result given; & = joins results of further samples. Outcome played no part in choosing rows; 2.1% or so of the library scored in one or more.
SMILES,Ecoli growth,LANA-H2B inh,HNF4A DNA FP,A1 inh,Beta2AR agonist,UCH37 DUB inh,Vif TR-FRET
c1ccc(N2CC3CCc4ccccc4C3=N2)cc1 (stereo unspecified),0.66,3.3,3.2,-2.4,-11,i,-5%
CCOC(=O)C1=C(CC)OC(N)=C(C#N)C1c1cc(OC)ccc1OC (stereo unspecified),0.67,1.2,0.0,0.5,-2,-2.9,22%
CN1CCN(NC(=O)Nc2cc(Cl)cc(Cl)c2)CC1,0.63,2.2,-0.2,0.5,-4,0.3,6%
O=C(Cn1cc(Cl)ccc1=O)c1ccc(Cl)cc1,0.7,1.7,5.0,1.1,1,0.7,x
Cc1ccc([N+](=O)[O-])cc1NC(=O)Nc1onc(C)c1C,0.63,-2.4,0.6,0.4,6,4.0,-2%
CCOC(=O)CC(NS(=O)(=O)Cc1ccccc1)c1ccc(C)cc1 (stereo unspecified),0.71,-1.3,1.4,0.1,10,2.1,-2%
COc1ccc(-c2cc(C(F)F)n3ncc(C(=O)n4ccnc4C)c3n2)cc1,0.72,7.1,-0.2,1.3,48*,i,x
CCC(C)NC(=O)CN(c1ccc(Cl)c(Cl)c1)S(C)(=O)=O (stereo unspecified),0.7,-0.8,1.1,0.1,0,2.3,10%

# Fetched by structure from the entries so far, 2 records:
SMILES,Ecoli growth,LANA-H2B inh,HNF4A DNA FP,A1 inh,Beta2AR agonist,UCH37 DUB inh,Vif TR-FRET
COc1ccc(-c2cc(C(F)F)n3ncc(C(=O)n4ccnc4C)c3n2)cc1,0.72,7.1,-0.2,1.3,48*,i,x
CCOC(=O)CC(NS(=O)(=O)Cc1ccccc1)c1ccc(C)cc1 (stereo unspecified),0.71,-1.3,1.4,0.1,10,2.1,-2%

# Additional compounds follow:
SMILES,Ecoli growth,LANA-H2B inh,HNF4A DNA FP,A1 inh,Beta2AR agonist,UCH37 DUB inh,Vif TR-FRET
CC1CCN(c2oc(-c3ccccc3F)nc2C#N)CC1,0.72,-4.8,1.5,0.1,-10,-102,1%
Cc1ccc(S(=O)(=O)c2nc(-c3ccccc3Cl)oc2N2CCN(C)CC2)cc1,0.68,-5.8,-2.1,0.7,0,0.2,1%
CC(=O)Nc1ccc(NC(=O)CSc2nc3ccccc3o2)cc1,0.62,-0.5,-0.9,1.0,-6,0.3,x
Cc1ccc(C(=O)NCC(=O)OCC(=O)NC2CCCC(C)C2C)s1 (stereo unspecified),0.71,4.4,-4.5,-0.7,5,5.9,-5%
NS(=O)(=O)c1cccc(NC(=O)CSc2ncnc3ccccc23)c1,0.66,-4.1,2.1,-0.3,-1,11,x
Cc1ccccc1OCC(=O)N(Cc1cccs1)C1CCS(=O)(=O)C1 (stereo unspecified),0.66,-1.4,3.4,1.3,-6,2.5,-1%
Cc1cc(Cl)c(S(=O)(=O)N2CCN(c3ccccn3)CC2)cc1OCC(N)=O,0.68,-1.3,0.2,0.4,-15,5.0,-4%
COc1ccc(C)cc1NC(=S)Nc1ccccc1SC,0.7,3.0,-0.8,1.0,-5,2.9,-4%
CCCCC1(CC(=O)OC)C(=O)N(c2ccccc2)N(c2ccccc2)C1=O,0.67,0.1,0.8,-0.6,2,4.7,-3%
CCc1ccc(C2=CC(c3cc(Br)ccc3F)n3ncnc3N2)cc1 (stereo unspecified),0.64,-0.9,-5.1,-0.7,2,-160,0%
CN(C)S(=O)(=O)c1cccc(C(=O)OCC(=O)Nc2sccc2C#N)c1,0.64,-1.9,2.8,-1.0,-1,5.8,6%
COc1ccc(CCn2c(-c3ccco3)nc3ccccc3c2=O)cc1OC,0.72,-5.5,1.6,0.1,-4,0.7,1%
CCOC(=O)CSc1nnc(-c2ccc(OC)cc2OC)o1,0.7,-0.7,-5.1,-0.1,4,1.7,2%
O=C1CC2(CCN(C(=O)c3ccccc3Br)CC2)Oc2ccccc21,0.68,-4.3,0.1,-0.1,7,-17,-7%
Cc1cnc(C(=O)OCC(=O)c2cc(C)n(C)c2C)cn1,0.63,-7.2,-5.5,-0.3,-7,3.0,u
COC(CNC(=O)C(=O)NCC1OCCN1C(=O)c1ccc(Cl)cc1)OC (stereo unspecified),0.74,11*,0.0,x,-4,4.5,x
CCC1CCCCN1C(=O)CSc1nc2ccsc2c(=O)n1Cc1ccccc1 (stereo unspecified),0.69,1.3,14,-0.3,-10,-2.0,2%
CN(C)CCCNc1ccc(-c2n[nH]c(=O)c3ccccc23)cc1[N+](=O)[O-],0.69,2.3,2.2,0.7,-5,8.2,0%
O=[N+]([O-])c1nn(-c2ccc3c(c2)OCCO3)n(O)c1=NCCCO,0.6,-1.4,-3.4,-1.8,5,7.9,-1%
COC(=O)Cc1ccc(NC(=S)N2CCC(Cc3ccccc3)CC2)cc1,0.63,-4.2,2.9,0.0,11,3.8,-1%
CCOC(=O)Cc1csc(NC(=O)CSC2=NCCS2)n1,0.68,1.0,-0.4,0.0,10,1.5,x
COCCSc1ccccc1C(=O)Nc1nncs1,0.69,1.3,-7.6,-0.2,-3,6.1,1%
CSc1ccc(Cl)c(C(=O)N2CCN(c3ncccn3)CC2)c1,0.68,-9.0,-2.1,0.9,-5,-2.3,10%
Cc1ccc(/C=N/n2c(C)cc(C)c(C#N)c2=O)cc1,x,0.5,1.7,0.0,-14,x,29%
CCCOc1ccc(CSc2ncn[nH]2)cc1,0.73,-3.6,0.7,0.3,-6,2.1,2%
O=C(O)CC1S/C(=N\N=C/c2ccccc2O)N(c2ccc(O)cc2)C1=O (stereo unspecified),x,5.7,-1.7,0.7,-8,x,13%
Cc1cc(C)cc(OC(=O)CCN2C(=O)c3ccccc3C2=O)c1,0.66,5.9,-1.6,0.1,6,0.3,4%
CCOc1ccccc1NC(=S)N1CCCc2ccccc21,0.72,0.8,-5.6,0.7,4,2.6,-5%
CCOC(=O)c1[nH]c2ccccc2c1N=CN(C)C,0.71,-0.9,0.8,0.4,-2,-1.7,0%
N#C/C(=C\c1cn(Cc2ccccc2)c2ccccc12)C(=O)NCc1ccco1,0.7,6.0,3.6,-0.1,-17,-53,x
O=C(NCc1ccco1)c1ccc2nc3sc4c(c3c(=O)n2c1)CCCC4,x,0.0,x,-0.6,x,x,24%
CCCC(=O)Nc1nn(CCC)c2nc3ccccc3cc12,0.6,15*,2.0,x,0,-15,18%
Cc1ccc(S(=O)(=O)NCC(=O)OCC(=O)Nc2cccc(S(=O)(=O)N3CCOCC3)c2)cc1,0.66,2.9,0.2,0.5,3,2.9,x
Cc1cc(C)n(CCC(=O)N/N=C/c2ccc(Cl)c([N+](=O)[O-])c2)n1,x,-5.8,-0.9,u,-5,x,-9%
COc1ccccc1NS(=O)(=O)c1cc(NC(=O)c2ccc(Cl)nc2)ccc1Cl,0.66,x,-1.8,1.4,-2,3.8,17%
O=C(OCC(=O)N(Cc1ccccc1)Cc1ccccc1)c1ccccc1NCCO,0.7,1.0,2.2,-0.5,8,-410,-13%
O=c1[nH]c(CSc2nc(-c3ccccc3)cs2)nc2ccccc12,0.7,0.7,0.5,0.2,-18,-1.5,-6%
Cc1ccc(C)c(NS(=O)(=O)c2ccc(-c3ccc(=O)[nH]n3)o2)c1,0.69,3.0,0.5,-0.3,9,-1.2,-21%
C=CCNC(=O)c1c(Cl)cccc1Cl,0.77,1.1,-0.4,0.0,4,-0.7,u
CCN(CC)c1ccc(C(=O)OCC(=O)N2CCN(c3ccccc3)CC2)cc1,0.73,-0.6,1.1,-0.3,0,5.2,28%
COc1cc(S(=O)(=O)N2CCN(C)CC2)c(OC)cc1Cl,0.7,0.8,1.5,0.2,5,1.3,9%
O=C(CCC(=O)c1ccc(Cl)cc1)OCn1nnc2ccccc2c1=O,0.71,-7.8,-0.9,-0.1,1,-1.8,x
CNC(=O)[C@@H]1CCC(=O)N1,x,1.1,0.5,-0.8,5,-0.1,x
CNC(=O)CSc1nnc(-c2ccc(S(=O)(=O)N3CCCC3)cc2)n1-c1cccc(C)c1C,0.6,-0.1,-0.7,1.3,-1,2.2,11%
Cc1ccccc1-n1cnnc1SCC(=O)N1CCN(c2ccccc2)CC1,0.68,1.7,-1.0,-0.4,0,-3.6,0%
CCOc1ccc(OCc2ccc(C(=O)N3CCCC(C)C3)cc2)cc1 (stereo unspecified),0.71,-1.1,-0.1,-1.3,4,-0.6,-15%
C/C(=N\NC(=O)COc1ccc(C#N)cc1)c1ccccc1OC(F)F,x,-3.6,2.0,-0.4,-6,x,u
NC(=O)COc1ccccc1C1=NO[C@@](CC(=O)O)(C(=O)Nc2ccc3c(c2)OCCO3)C1,0.68,-1.2,3.9,1.2,-7,0.8,-1%
CCN(CC)S(=O)(=O)c1ccc(C(=O)NCCCN=C2NS(=O)(=O)c3ccccc32)cc1,0.68,-0.3,1.9,-0.1,-8,1.5,u
CCN(CC)CCCNC(=O)CSc1nc2c(c(C(F)(F)F)n1)CCc1ccccc1-2,0.66,-1.9,0.3,0.2,1,-1.6,-4%
COc1ccc(CNC(=O)CSc2nc(-c3ccccc3)cc(-c3cccs3)c2C#N)cc1,0.73,0.9,5.0,0.6,-11,-98,-5%
CCOC(=O)C(=O)Nc1cc(Cl)ccc1C,0.66,2.9,-0.6,-0.4,1,2.1,2%
CC(=C/c1ccccc1)/C=N/NC(=O)c1ccccn1,x,6.3,1.1,-7.2,-2,x,-1%
CC(C)CNC(=O)CC(=O)NN=C1CCCC1,0.71,-2.6,0.0,0.1,5,3.5,7%
Cc1ccc(OCC(=O)N2CCCC(CCC(=O)N(C)CCc3ccccn3)C2)cc1 (stereo unspecified),0.69,-1.4,0.1,0.2,-7,1.4,-5%
COc1ccc(S(=O)(=O)N(CCCN2CCCC2=O)Cc2cc3c(C)ccc(C)c3[nH]c2=O)cc1,0.74,6.4,4.8,-0.2,-10,-12,0%&1%

# Carrying on.
SMILES,Ecoli growth,LANA-H2B inh,HNF4A DNA FP,A1 inh,Beta2AR agonist,UCH37 DUB inh,Vif TR-FRET
Cc1ccc(C(=O)ONC(=O)c2ccc(Cl)cc2)cc1[N+](=O)[O-],0.68,1.7,-1.9,0.2,7,6.5,-5%
CCOC(=O)C1(CCOC)CCN(Cc2ccccc2-c2ccco2)CC1,0.74,8.0,1.1,-0.5,21,2.8,-4%
COC(=O)C1(CCSC)NC(c2ccco2)C2C(=O)N(C)C(=O)C21 (stereo unspecified),0.68,1.3,1.1,-0.1,2,1.4,3%
Cc1ccc(S(=O)(=O)NCCCC(=O)O)cc1,0.67,2.2,1.8,0.8,0,2.5,-7%
O=C(O)CN1CCN(Cc2ccc(F)cc2Cl)C1=O,0.72,4.1,-2.7,0.2,-4,1.4,17%
CC(=O)Nc1c(NC(C)(C)C)c2ccccc2oc1=O,0.69,-0.9,2.5,0.6,-2,0.3,20%
O=C(Cn1cnc2ccccc21)Nc1ccc(F)c(F)c1,0.62,-0.5,1.6,-0.1,0,1.9,14%
COc1ccc(Cc2nc3ccc(C(=O)N4CCC[C@H]4CO)cc3o2)cc1,0.71,1.8,0.9,1.1,2,2.3,-13%
CC1CCC(C(C)C)C(=O)/C1=C/c1ccc(N)cc1 (stereo unspecified),0.69,-2.3,-0.4,-0.9,11,0.8,-1%
